Compound activity as filed in PubChem.
Cruzain inh noDet = cruzain (T. cruzi) inhibition without detergent. Potency, µM, for inactives: max response, negative = inhibition, hits mostly inhibitors. P25779. purified cruzain, Z-FR-AMC fluorescence, no detergent. 2.3% of 200,000 active. AID 1476;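 further: plate controls were enzyme without inhibitor for no effect and buffer without enzyme for full effect; nearly all actives have a fitted effect of over 40% in size; top concentration of the series not given in the record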
Target sequence (P25779 123-467 limits assumed): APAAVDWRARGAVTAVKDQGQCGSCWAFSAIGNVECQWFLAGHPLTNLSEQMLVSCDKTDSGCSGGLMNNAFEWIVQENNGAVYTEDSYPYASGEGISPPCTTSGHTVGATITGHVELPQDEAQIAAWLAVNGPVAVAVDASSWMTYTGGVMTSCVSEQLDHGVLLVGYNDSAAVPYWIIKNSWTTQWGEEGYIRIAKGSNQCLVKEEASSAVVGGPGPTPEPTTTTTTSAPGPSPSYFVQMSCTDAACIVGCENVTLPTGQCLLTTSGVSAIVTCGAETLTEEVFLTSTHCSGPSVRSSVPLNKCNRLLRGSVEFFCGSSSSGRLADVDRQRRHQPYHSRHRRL
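Purified cruzain at 1.5 nM, pre-incubated 15 min with compound at room temperature in 100 mM sodium acetate pH 5.5, 5 mM DTT, 0.00005% Triton X-100. Reaction started with 2 uM Z-FR-AMC; AMC fluorescence increase over 60 s gives rate.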
NS1 inh = inhibitors of influenza NS1 protein function; S. cerevisiae slowed by influenza A NS1, growth recovery by OD600; Potency, µM (highest dose often 46.1 µM), for the others: at the top dose activity, positive = more growth; 0.4% of 270,000 active; AID 2326; active means well fitted rising curve with a large enough effect; inconclusive means small, poorly fitted or top-dose-only effect; inactive means no such curve, though single readings can be large or run the other way; further: nearly all actives have a fitted effect of over 50% in size
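Growth recovery, yeast-based: influenza A NS1 expressed in S. cerevisiae causes slow growth, and suppressors are detected by OD600. The parent strain without NS1 is used as positive control.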
StopGo reporter = FMDV 2A StopGo reporter, luciferase signal; Potency, µM (titrated, usually from 57.9 µM), inactives show at the highest dose signal change, negative = less light; AID 1159524; 1.2% of 410,000 active; human cells with a luciferase reporter of 2A StopGo recoding; control for the full effect not named in the record; active = well fitted falling curve with a large enough effect; inconclusive = small, poorly fitted or top-dose-only effect; inactive = no such curve, though single readings can be large or run the other way; tested in HEK293T cells; further: on the % scale 0 is the no-effect control and ±100 the full control effect; nearly all actives have a fitted effect of over 45% in size; luciferase light after 4 h
Cruzain inh Det = blocks cruzain activity in presence of Triton detergent; P25779; purified cruzain, Z-FR-AMC fluorescence, 0.01% Triton; Potency, µM, without a hit: max response, negative = inhibition, most hits filed as inhibitors; 0.43% of 200,000 active; AID 1478;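 further: plate controls were neutral wells for no effect and buffer without enzyme for full effect; nearly all actives have a fitted effect of over 40% in size; top concentration of the series not given in the record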
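Steps: dispense cruzain (1.5 nM final) in acetate buffer pH 5.5 with DTT and 0.01% Triton X-100; pin-transfer compounds; incubate 15 min RT; add Z-FR-AMC (2 uM final); read fluorescence every 30 s, using the 60 s intensity change.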
RE007 growth inh = less growth of the S. pombe RE007 Vpr strain; S. pombe RE007 Vpr strain, BacTiter-Glo ATP luminescence, 24 h; control for the full effect not named in the record; Potency, µM (series often up to 92.2 µM), inactives show top-dose activity change, negative = less growth; 0.21% of 360,000 active; AID 651644; active = well fitted falling curve with a large enough effect; inconclusive = small, poorly fitted or top-dose-only effect; inactive = no such curve, though single readings can be large or run the other way;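 further: on the % scale 0 is the no-effect control and ±100 the full control effect; nearly all actives have a fitted effect of over 50% in size; the assay follows cell death caused by Vpr and the record does not say whether a fall means rescue or toxicity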
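Fission yeast strain RE007, carrying one chromosomally integrated HIV-1 vpr copy, was seeded at OD 0.01 in PMG+AL medium with 23 nL pinned compound. After 24 h at 30 °C and 99% humidity, viability was read by BacTiter-Glo luminescence.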
Lassa entry inh = Lassa virus entry inhibition | Lassa virus pseudotype entry inhibition, cell reporter; control for the full effect not named in the record | Potency, µM (top dose mostly 37.9 µM), inactives show at the highest dose activity change, negative = inhibition, hits mostly inhibitors | 1.2% of 300,000 active | AID 540256; active means well fitted inhibition curve with a large enough effect; inconclusive means small, poorly fitted or top-dose-only effect, or effect the other way; inactive means flat fitted curve, though single readings scatter; tested in HEK293 cells; further: on the % scale 0 is the no-effect control and ±100 the full control effect; nearly all actives have a fitted effect of over 50% in size; luciferase read-out
SARS PLP yeast = SARS-CoV PLP inhibition in yeast; S. cerevisiae expressing SARS-CoV PLpro, growth rescue; control for the full effect not named in the record; Potency, µM (doses to about 32.9 µM), inactives show at the top dose activity, positive = growth rescue; 0.19% of 330,000 active; AID 485353; active means well fitted rising curve with a large enough effect; inconclusive means small, poorly fitted or top-dose-only effect; inactive means no such curve, though single readings can be large or run the other way; further: 0% is about no effect; nearly all actives have a fitted effect of over 55% in size; growth read by luminescence after 48 h
Marburg entry inh = blocks Marburg virus binding to or entry into cells; Marburg virus pseudotyped entry inhibition, cell reporter; control for the full effect not named in the record; about a third of the inactives were read at about 46 µM; Potency, µM (highest dose often 37.8 µM), without a hit: at the top dose activity change, negative = inhibition, usual class: inhibitors; 1.8% of 300,000 active; active = well fitted inhibition curve with a large enough effect; inconclusive = small, poorly fitted or top-dose-only effect, or effect the other way; inactive = flat fitted curve, though single readings scatter; tested in HEK293 cells; about a fifth of its hits are not listed in these tables; further: on the % scale 0 is the no-effect control and ±100 the full control effect; luciferase read-out
An asterisk follows results filed as active; u = inconclusive; x = no result given; & = joins results of further samples; [ ] = remark or other dose. Unless noted, the call rests on the fitted dose curve; in most records, active means well fitted curve in the direction sought with a large enough effect; inconclusive means small, poorly fitted or top-dose-only effect, or another doubt; inactive means no such curve, though single readings can be large; an effect the other way counts as inactive or inconclusive. Potency means the concentration at half of the fitted maximal effect.

SMILES	Cruzain inh noDet	NS1 inh	StopGo reporter	Cruzain inh Det	RE007 growth inh	Lassa entry inh	SARS PLP yeast	Marburg entry inh
Cc1ccc(NC(=O)C2CCCN(S(=O)(=O)c3cn(C(C)C)cn3)C2)c(C)c1 (stereo not given)	4%	x	-1%	0.2%	x	-16%[46.1 µM]	x	x
CCCN(Cc1cc2cccc(C)c2[nH]c1=O)C(=O)c1cccc(Cl)c1	-9%	x	16%	-0.4%	x	u	x	-27%[46.1 µM]
CN(Cc1ccco1)C(=O)CSc1nc(C2CC2)n(-c2ccccc2)n1	x	x	-2%	x	-6%	4%	2%	u
COC(=O)C(C)Sc1nc2c(c(=O)[nH]c(=O)n2C)n1CCCc1ccccc1 (stereo not given)	9%	-7%	-26%	-0.6%	18%	-12%	1%	-4%
COc1ccccc1N1CCN(CCCn2c(=S)[nH]c3ccccc3c2=O)CC1	x	-3%	-7%	x	-6%	0%[46.1 µM]	0%	u
CC(C)(C)C(=O)NNC(=O)CCCOc1ccc(Cl)cc1Cl	-5%	0%	x	0.8%	-2%	20%	3%	10%
COc1cc(-c2nnc(CSc3nnc4nc(C)cc(C)n34)o2)cc(OC)c1OC	-7%	-1%	13%	0.8%	3%	u	8%	6%
Cc1ccccc1Cn1cnc2c(NS(C)(=O)=O)c(C)c(C)cc21	-1%	-10%	u	0.9%	3%	24%	-1%	15%
COc1ccc(C(=O)N2CCN(c3nnnn3-c3ccccc3)CC2)cc1OC	-7%	4%	-11%	2.8%	0%[3.69 µM]	0%	-7%	10%
C=CCOc1ccc(Cl)cc1CNCCCN1CCOCC1	0%	0%	x	2.7%	-15%	-8%	1%	u
COc1ccc(Nc2cc(C)nc(N3CCOCC3)n2)cc1	-1%	-1%	31%[activator]	-2.1%	-4%	0%	4%	u
CCOC(=O)c1cc(-c2ccccc2)n(CCC(=O)O)c1C	7%	7%	x	3.2%	-8%	2%	-7%	2%
Cc1ccc(S(=O)(=O)c2c(C)nn(C(C)(C)C)c2OC(=O)C(C)C)cc1	x	9%	-8%	x	9%	x	-3%	x
COc1cc(NC(=O)CSc2nc3ccccc3nc2Cc2ccccc2OC)cc(OC)c1	-20%	x	-14%	1.8%	x	-10%[46.1 µM]	x	x
O=C1CN(C(=O)COc2ccc(Cl)cc2)C(c2ccccc2)c2cc(Br)ccc2N1 (stereo not given)	u	x	-23%	-7.3%	x	x	x	-24%[46.1 µM]
O=C(COC(=O)CCC(=O)c1ccc(F)cc1)Nc1ccc(Cl)cn1	x	x	0%	x	-12%	13%	-3%	-6%
COc1cc(S(=O)(=O)NCc2ccccn2)c(OC)cc1Cl	-11%	4%	x	2.5%	-2%	14%	19%	0%
CC(C)CCNC(=O)c1c(N)n(CC2CCCO2)c2nc3ccccc3nc12 (stereo not given)	u	u	-3%	-19%	8%	-23%	-40%	u
CC(=O)C1=C(C)Nc2ncnn2C1c1cccc(Br)c1 (stereo not given)	x	0%	-13%	x	11%	7%	0%	-1%
O=c1cc(CO)oc(CN2CCN(Cc3ccccc3)CC2)c1O	-9%	5%	-2%	1.4%	-1%	-4%	7%	25%[46.1 µM]
COc1ccc(NC(=O)CSCC(=O)Nc2cccc(S(=O)(=O)N3CCCCCC3)c2)cc1	x	x	-29%	x	4%	-2%	-3%	-28%
CC1=C(c2ccc(C(C)C)cc2)S(=O)(=O)NC1=NCCCN1CCN(c2ccccc2F)CC1	10%	x	-9%	-3.2%	x	1%[46.1 µM]	x	-4%[46.1 µM]
COc1ccccc1S(=O)(=O)Nc1ccc(-c2nnc3n2CCCCC3)cc1	2%	16%	14%	0.3%	15%	11%	6%	15%
Cc1ccc(-c2nc(SC(C)C(=O)c3c(N)n(C)c(=O)n(C)c3=O)n[nH]2)cc1 (stereo not given)	x	x	-26%	x	2%	u	1%	-23%
COc1ccc(-n2c(=O)cc(N3CCN(Cc4ccccc4)CC3)[nH]c2=O)cc1	-8%	-3%	-26%	-2.0%	4%	x	7%	x
COc1ccc(NC(=O)NC2CCCCCCC2)cc1	x	1%	44%[activator]	x	-1%	x	3%	x
O=C(CSc1nc2ccccc2n1Cc1ccccc1)NCc1ccccc1	5%	x	-7%	-5.1%	x	-4%[46.1 µM]	x	x
O=C(CSCc1ccccc1Br)N/N=C/c1ccccc1C(=O)O	x	-2%	0%	x	16%	-1%	-1%	u
COC(=O)c1nnn(CC(=O)NC(=O)Nc2ccccc2F)c1C(=O)OC	-1%	x	-7%&-27%	-0.3%	11%	u	2%	3%&3%[46.1 µM]
Cc1ccc(-n2ncc3c(NC4CCCCCC4)ncnc32)cc1	-12%	x	-2%	0.6%	x	19%[46.1 µM]	x	x
N#Cc1ccc(CSC2=NCCN2)cc1	x	1%	-28%	x	5%	u	3%	u
Cc1nn(-c2ccccc2)c(C)c1C(=O)OCC(=O)N(C)C1CCS(=O)(=O)C1 (stereo not given)	x	x	55%[activator]	x	-17%	1%	0%	u
Cc1cccc(NC(=O)c2ccccc2C(=O)Nc2cccc(C)c2)c1	x	x	24%	x	-26%	0%	x	u
O=C(c1ccco1)c1cn(Cc2ccccc2)c2ccccc12	-4%	-114%	-9%	-6.5%	5%	5%	-24%	4%
COc1ccc(CC(=O)OCC(=O)NCc2ccc3c(c2)OCO3)cc1OC	x	x	-2%	x	21%	-21%	5%	-1%
COc1cccc(CNC(=O)CN2C(=O)COc3ccc(S(=O)(=O)N4CCOCC4)cc32)c1	-5%	-1%	-7%&-5%	-0.6%	-19%	22%[46.1 µM]	3%	x
CCO[C@@H]1OC(C(=O)NC2CC2)=C[C@H](C2CC2)[C@H]1CCCO	x	3%	-24%	x	9%	x	1%	x
CCN1CCN(S(=O)(=O)Cc2ccccc2Cl)CC1	x	5%	-17%	x	12%	x	4%	x
COc1ccc(N2C(=O)CCC(C(=O)N3CCCCC3)C2c2ccc(OC)c(OC)c2)cc1 (stereo not given)	1%	u	21%	2.2%	9%	6%	4%	6%&6%
CC(=O)Nc1ccc(CN2CCCC(CO)(Cc3ccccc3C)C2)cc1 (stereo not given)	x	16%	-8%	x	0%	3%	1%	u
COCCN1Cc2cccc(C(=O)NCCCN3CCCC3=O)c2C1=O	x	-3%	-9%	x	8%	13%	-1%	1%[46.1 µM]
COc1ccc(Cl)cc1NC(=O)CC(C)c1ccccc1 (stereo not given)	4%	-114%	-7%	2.8%	2%	0%	-20%	0%
Cn1ccnc1C1CCCCN1Cc1nc(Cc2cccc(C(F)(F)F)c2)no1 (stereo not given)	x	0%	-21%	x	-7%	-1%	1%	u
CCc1ccc(CNC(=O)c2c(C)oc3ncn(CC(C)C)c(=O)c23)cc1	6%	x	-8%	-3.7%	x	-28%[46.1 µM]	x	x
Cc1ccc(CNC(=O)C2CCC(CNS(=O)(=O)c3ccc(C)cc3)CC2)cc1 (stereo not given)	-4%	x	9%	0.0%	x	28%[46.1 µM]	x	x
Cc1ccc(C)c(NC(=S)NCc2ccc3c(c2)OCO3)c1	2%	-21%	38%[activator]	1.3%	2%	18%	-4%	1%
Cc1ccc(S(=O)(=O)Nc2cc(=O)[nH]c3c2CCC3)cc1	3%	0%&22%	15%	3.9%	-18%	0%[46.1 µM]	0%	u
COc1ccc(O)c(C(=O)C2c3ccccc3C(=O)N2c2ccc(C)cc2)c1 (stereo not given)	x	10%	34%[activator]	x	-1%	-7%	-4%	0%[14.2 µM]
Cc1cc(NC(=O)COc2ccccc2C)no1	x	-4%	24%	x	25%	-10%	0%	15%
CCCCC1=CC2=C(c3ccco3)C(=O)C(C)(OC(=O)c3ccc(OC)cc3)C(=O)C2=CN1Cc1ccc2c(c1)OCO2 (stereo not given)	x	7%	u	x	-5%	x	2%	u
COc1ccc(-c2cc([C@H]3[C@H]4C=CC[C@@H](C)[C@@H]4C(=O)N3Cc3ccccc3)ccc2F)cc1	x	9%	-25%	x	12%	x	-1%	x
Cc1nnc(NC(=O)c2ccc(S(=O)(=O)N3CCCCCC3)cc2)o1	5%	-9%	-13%	1.6%	2%	6%	0%	-23%&-23%[46.1 µM]
O=C(COc1ccc(C(=O)c2ccccc2)cc1)NC1CCCCCC1	-8%	-24%	u	-3.3%	-16%	u	-1%	u
Cc1c(/C=N/N2C(=O)C3C4C=CC(C4)C3C2=O)c2ccccc2n1C (stereo not given)	u	-2%	-3%	-3.2%	u	0%	-9%	0%
COc1ccc(Oc2nc(SC)nc3ccsc23)cc1	8%	0%	u	-13%	0%	u	7%	u
COc1ccc(Br)cc1CNC(=O)CCc1cn(Cc2ccc(C)cc2)c2ccccc12	9%	x	-14%	-1.1%	x	1%[46.1 µM]	x	x
Cc1noc(C)c1C(=O)N1CCC2(CC1)Oc1ccc(F)cc1C(=O)C21CC(c2ccc(Cl)cc2)=NO1 (stereo not given)	x	2%	u	x	-3%	x	2%	x
c1ccc(Sc2cccc3ccccc23)c(CNC2=NCCN2)c1	-1%	-59%	u	-3.5%	2%	8%	-80%	6%
CCOC(=O)C1=C(C)N=C2SC(C(=O)OC)=CC(=O)N2C1c1ccc(OC)cc1 (stereo not given)	x	x	14µM*	x	-12%	x	1%	-27%[46.1 µM]
CCOC(=O)/C(=C/c1ccc(OC(=O)c2ccccc2)cc1)C(C)=O	u	-79%	20%	-3.9%	28µM*	3%	-138%	-5%
Further compounds follow:
SMILES	Cruzain inh noDet	NS1 inh	StopGo reporter	Cruzain inh Det	RE007 growth inh	Lassa entry inh	SARS PLP yeast	Marburg entry inh
CSc1ncc(CN2CCN(C3CCCC3)C(CCO)C2)cn1 (stereo not given)	x	3%	-3%	x	-15%	x	1%	x
CN(Cc1ccc(C(F)(F)F)cc1)C(=O)C1CCC(=O)N(C2CC2)C1 (stereo not given)	x	-1%	-4%	x	14%	6%	-5%	6%
Cc1ccc(CSc2nnc(Nc3ccc(C)cc3)s2)cc1	-18%	-8%	-5%	1.4%	-3%	-1%	-5%	-3%
CC(C)CN1C(=O)c2ccc(C(=O)Nc3c[nH]c(=O)[nH]c3=O)cc2C1=O	x	x	1%	x	10%	-7%	-4%	6%[46.1 µM]
Cc1nc(N/C(N)=N/S(=O)(=O)c2ccccc2)nc2ccccc12	x	x	20%	x	-11%	-14%[46.1 µM]	-2%	u
